# Assay outcomes deposited in PubChem BioAssay by Fisher Drug Discovery Resource Center.
# NPYLR7 agonist: mosquito NPYLR7 agonism | 0.15% of 270,000 active | activation, % at 10 µM | AID 1259423 | HEK293T NPYLR7/Galpha15, GCaMP6s calcium fluorescence; in the data active = activation above about 40%;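 note: 0% = vehicle and 100% = reference agonist at the receptor; some compounds past the cut are filed as inactive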
# NPYLR7 agonist max-min: also measured in NPYLR7 agonist; calls as there; activation, %; measured here: Max-Min RFU normalised activation; some inactives read as strong as hits;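 span of the calcium signal over five minutes; 0% = vehicle and 100% = native peptide agonist; compound fluorescence can raise it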
# * marks the source's active call; other numbers are inactive results; & = joins results of further samples. Not all compounds are listed, so the mix of outcomes need not match the whole.
# Below each compound: NPYLR7 agonist | NPYLR7 agonist max-min
OC1CCCN(c2ccc(-c3nc(-c4cccc(Cl)c4)no3)cn2)C1 (stereo not drawn)
 : 16 | 9
Cc1cccc(CN2CCC3(CC2)NC(=O)N(CCc2ccccc2)C3=O)c1
 : -8 | -9
COc1cc(C)sc1C(=O)Nc1ccc(N2C(=O)CCCC2=O)cc1
 : 4 | -1
COC(=O)c1c(C)[nH]c(C(=O)C(C)OC(=O)c2cc(C)oc2C)c1C (stereo not drawn)
 : -3 | 0
CCc1[nH]c2c(CNC(=O)Cn3ccc(=O)c4ccccc43)cc(C)cc2c1C
 : -1 | -1
CCN(CCNC(=O)c1cn(CC(=O)C(C)(C)C)nn1)c1ccccc1C
 : 0 | -1
Cc1cccnc1[C@H](C)NC(=O)c1cccc(CC2CCNCC2)c1
 : -4 | -6
COc1cccc(-c2nc(SCCN3CCCC3)c3c(=O)n(C)c(=O)n(C)c3n2)c1
 : -6 | -10
CC(C)c1cc(CN2CCCC(CNC(=O)c3ccon3)C2)on1 (stereo not drawn)
 : 5 | 4
CCCc1c(C(=O)Nc2ccc(-c3cccc(-c4ccc5c(c4)NC(=O)CO5)n3)cc2)cnn1-c1ccccc1
 : 14 | 15
CCn1c(O)c(C#N)c(C)cc1=O
 : -1 | 2
CN(C)C(=O)c1cncc(N2CCC3(CC2)CC(C(=O)O)N(C)C3)n1 (stereo not drawn)
 : 8 | 6
OC(Cc1ccccc1)CN(Cc1ccc(F)cc1)Cc1ccc2c(c1)OCO2 (stereo not drawn)
 : 1 | 3
Cc1noc(-c2ccnc(N3CCC4(CCNCC4)C3)c2)n1
 : 11 | 9
Cc1ccc(Cn2c(CCNC(=O)c3ccco3)nc3ccccc32)cc1
 : -4 | 2
CCOc1cccc(-c2nc3ccccc3c(=O)n2C2CCCCC2)c1
 : 3 | -2
Cc1nc(C)c(C(=O)N2CCCC3(CC2)CNC(=O)O3)s1 (stereo not drawn)
 : 0 | -2
COc1ccc2nc(-c3ccc(OC)c(NC(=O)NC4CCCCC4)c3)cn2n1
 : 5 | 4
COc1ccccc1OCC1CN(C(=O)CCc2c[nH]c3ccccc23)CCO1 (stereo not drawn)
 : 6 | 20
CC1CCN(C(=O)c2cc(NC(=O)c3ccc4ccccc4c3)c(=O)n(C)c2)CC1
 : -3 | -4

# The final 2 records of the section above come first, to join the parts.
# Below each compound: NPYLR7 agonist | NPYLR7 agonist max-min
COc1ccccc1OCC1CN(C(=O)CCc2c[nH]c3ccccc23)CCO1 (stereo not drawn)
 : 6 | 20
CC1CCN(C(=O)c2cc(NC(=O)c3ccc4ccccc4c3)c(=O)n(C)c2)CC1
 : -3 | -4
CC(C)N(C)C(=O)C1CSCN1S(=O)(=O)N(C)C(C)C1CC1 (stereo not drawn)
 : -1 | 2
CCc1ccc(S(=O)(=O)NCc2ccco2)cc1
 : 1 | 3
COc1cc(OC)cc(C(=O)Nc2ccc(N3CCN(c4ccccc4OC)CC3)c(C(=O)NCc3ccc(F)cc3)c2)c1
 : -3 | -1
COc1cccc(CN2CCNC(=O)C2CC(=O)N2CCOc3ccccc3C2)c1OC (stereo not drawn)
 : -1 | -3
CC(Sc1ncnc2sc3c(c12)CCCC3)C(N)=O (stereo not drawn)
 : -5 | -5
Cn1cc(CN2CCN(Cc3ccccc3)C(CCO)C2)c2ccccc21 (stereo not drawn)
 : 1 | -1
CC(C)CCNC(=O)c1cc(-c2ccccc2)nc2cc(C(C)(C)C)nn12
 : 7 | 5
CC(C)(C)c1ccc(NC(=O)CN2CCC(N3CCCC3)C2)cc1 (stereo not drawn)
 : 2 | -1
CCOc1ccc2cc(C(=O)Nc3ccc(C)cc3)c(=N)oc2c1
 : -1 | -5
O=C(Cc1ccccc1)NC(NC(=S)Nc1ccccc1C(=O)O)C(Cl)(Cl)Cl (stereo not drawn)
 : -14 | -17
CN(C(=O)c1ccc(C#CC(C)(C)O)o1)C1Cc2ccccc2C1
 : 10 | 8
COc1ccc(OC)c(CNc2cc(C)nc(C)n2)c1
 : 1 | 0
CCCCCCCCCC(=O)N(CN1C(=O)c2ccccc2C1=O)c1cc(C)ccc1C
 : 0 | 1
Clc1cccc(Nc2cc3c(cn2)ncn3-c2ccccc2)c1
 : 36 | 24
O=C1NC(c2cccs2)Nc2sc3c(c21)CCCC3 (stereo not drawn)
 : 15 | 10
CC(=O)Nc1ccc(S(=O)(=O)Nc2ccc(Nc3ccc(-n4nc(C)c(C)c4C)nn3)cc2)cc1
 : -3 | -7
COc1ccc(C2Oc3c(cccc3OC)C=C2[N+](=O)[O-])cc1OC (stereo not drawn)
 : 2 | -2
Cc1cnc(C)c(-c2cccc(C(C)N3CCCC3)c2)n1 (stereo not drawn)
 : 2 | -2
CCCCc1ccc2nc(Cl)sc2c1
 : 5 | -10
OCCC1CN(C2CCN(Cc3ccccc3)CC2)CCN1Cc1ccccc1F (stereo not drawn)
 : 8 | -7
Cn1ccsc1=NC(=O)c1ccc(COc2ccccc2F)o1
 : 6 | 0
COc1cc(C2SCC(=O)N2Cc2ccco2)ccc1O (stereo not drawn)
 : -9 | -8
Cc1nc2ccc(C(=O)NCc3ccc4c(c3)OCO4)cn2c1N(C)C(=O)CCc1ccccc1
 : 21 | 17
Cc1ccc(Cn2nc3n(C(C)C)c(=O)c4ccc(C(=O)NCC(C)C)cc4n3c2=O)cc1
 : -3 | -6
CCn1c(C2CCNCC2)nn(CCn2cncn2)c1=O
 : 0 | -4
Nc1ncc(Cc2cccc(C(F)(F)F)c2)s1
 : 1 | -3
O=C(Nc1ccc(Cl)cc1)N1CCN(C(c2ccccc2)c2ccc(Cl)cc2)CC1 (stereo not drawn)
 : 18 | 4
O=C(CN1CCOc2ccccc21)N1CCN(S(=O)(=O)c2ccccc2F)CC1
 : -2 | -1
CCCCN(CC(=O)N(CCc1c[nH]c2ccccc12)Cc1ccc(Cl)c(Cl)c1)C(=O)c1cc(C(F)(F)F)cc(C(F)(F)F)c1
 : -8 | 2
CCc1ccc(C(=O)Nc2ccc(N3CCCC3)c(C(=O)NCc3ccccc3)c2)cc1
 : 6&-10 | 6&-4
O=C(NCC1CCCO1)c1cc2nc(-c3ccccc3)cc(C(F)(F)F)n2n1 (stereo not drawn)
 : -2 | -7
Fc1ccc(-n2c(-c3ccccc3)n[nH]c2=S)cc1
 : 0 | -4
CN(Cc1n[nH]c2c1CCCCC2)C(=O)c1cn[nH]n1
 : 0 | 1
COc1cccc(C(=O)N(CC(=O)N2CCc3sccc3C2c2ccc(F)cc2)C(C)C)c1 (stereo not drawn)
 : 9 | 11
COc1ccc2nc(SCC(=O)NCCc3ccccc3)[nH]c2c1
 : -9 | -14
O=C1NCC(=O)N2CCN(Cc3coc4ccccc4c3=O)CC12 (stereo not drawn)
 : -5 | -10
CCCc1c(C)c(C#N)c2nc3ccccc3n2c1NCc1cccnc1
 : 2 | 5
CC1=C(C(=O)OC(C)C)C(c2ccc(N(C)C)cc2)NC(=O)N1C (stereo not drawn)
 : 6 | 4
COc1ccccc1C(=O)N1CCC(c2nc(-c3ccc(F)c(F)c3)no2)CC1
 : 4 | -1
NC(=O)c1ccsc1NC(=O)C1CC2C=CC1C2 (stereo not drawn)
 : 0 | 6
C=CCNc1ccccc1C(=O)N(C)CC1CC(=O)N(C(C)(C)C)C1 (stereo not drawn)
 : 4 | 4
Cc1ccnc(N2CCC(CO)(Cc3cccc(F)c3)CC2)n1
 : -1 | -5
O=c1c2cc3c(=O)n(-c4ncn[nH]4)ccc3nc2ccn1Cc1cccnc1
 : -12 | -18
CNC(=O)c1cccc(Nc2ccn3nccc3n2)c1
 : 2 | 1
CCOC(=O)C(CC)Sc1nc(N)c(NC(=O)c2ccc(OC)c(OC)c2)c(=O)[nH]1 (stereo not drawn)
 : 3 | 2
Oc1oc(-c2cccc3ccccc23)nc1C=NC1CCCCC1
 : -1 | -6
Fc1ccccc1N1CCN(c2nc(-c3cccs3)nc3ccccc23)CC1
 : 15 | 10
COc1cc2c(cc1CN1CCNC(C(=O)NC3CC3)C1)CCC2 (stereo not drawn)
 : 6 | 4
COc1cccc(NC(=O)c2csc(COC(=O)c3ccccc3)n2)c1
 : 15 | 15
Cc1c(C(=O)NC(C)C2CC2)sc2nc3n(c(=O)c12)CCCCC3 (stereo not drawn)
 : -2 | -4
CCn1cc(CNC(=O)CC(c2ccccc2)c2ccc3c(c2)OCO3)cn1 (stereo not drawn)
 : 5 | 1
CCOC(=O)c1cc(-c2ccc(N3CCN(C(=O)COC)CC3)cc2)n(-c2ccccc2C)n1
 : -2 | -4
O=C(Cc1c(F)cccc1Cl)Nc1ccccc1-c1ccccc1
 : 0 | -1
O=c1c(Oc2ccccc2Br)coc2c3c(ccc12)OCN(C1CC1)C3
 : 1 | 2
CCOC(=O)CNc1c(-c2ccc(OS(=O)(=O)c3ccc(Br)cc3)cc2)nc2ccc(Cl)cn12
 : -3 | -1
Cc1cc(C)n2c(NCc3ccccc3)c(/C=C/c3ccccc3)nc2c1
 : 31 | 34
CCOc1ccccc1NC(=O)c1c(NC(=O)CBr)sc2c1CCC(C)C2 (stereo not drawn)
 : -1 | -2
O=C(NCc1cc(Cl)cc(Cl)c1)c1ccc2sc([C@H]3C[C@H](O)[C@@H](CO)O3)nc2c1
 : -1 | -2
Cc1ccccc1C1=NOC2CN(C(=O)c3ccc(-c4cccs4)cc3)CC12 (stereo not drawn)
 : 5 | 3
CSc1nnc(SCc2nnc(-c3ccccc3)o2)s1
 : 6 | 13

# Next structures follow.
# Below each compound: NPYLR7 agonist | NPYLR7 agonist max-min
CCCn1c2ccccc2n2c(C(=O)OC)c(C)nc12
 : -11 | -18
CC(C)(C)N(CC(=O)N1CCc2sccc2C1COc1cccc(F)c1)C(=O)c1ccccc1Cl (stereo not drawn)
 : -2 | 2
CC(C)Cn1nc(C(=O)O)c2c1CCC(NCc1cccc3[nH]ccc13)C2 (stereo not drawn)
 : 1 | -1
Cc1c(S(=O)(=O)Nc2ccc(Oc3ccccc3)cc2)c(=O)n(C)c(=O)n1C
 : 0 | -1
Oc1cc(Cl)ccc1-c1nc2ncccc2o1
 : -1 | -7
COC(=O)C(O)C/C(CC1OCCO1)=N\O (stereo not drawn)
 : -4 | -9
O=C(NC1CCN(c2c(F)cccc2F)C1)c1ccc[nH]1 (stereo not drawn)
 : 4 | 0
COC(=O)C1(NCc2ccncc2Cl)CCCCC1
 : 2 | 1
CCC(C)NC(=O)CCN(Cc1ccccc1)c1nc(-c2cccc(Br)c2)nc2ccccc12 (stereo not drawn)
 : 11 | 11
CCOC(=O)N1CCN(C(=O)CSc2nnc(-c3ccc4c(c3)OCO4)n2-c2ccccc2)CC1
 : 1 | 22
Fc1ccc(-c2noc3nc(NC4CC4)ccc23)cc1
 : 4 | 1
COC(=O)[C@@H](C)NC(=O)[C@H]1CN(C(=O)Nc2ccccc2)CCN1S(=O)(=O)c1ccccc1
 : -7 | -13
CCOC(=O)C1=C(NC(=S)NC(=O)c2ccccc2)c2ccccc2CC1(C)C
 : -1 | -1
CC(=O)N1CCCc2cc(S(=O)(=O)Nc3cccc4ccccc34)ccc21
 : -8 | -9
O=C(c1ccccc1Cl)N1CCCC(N2CCN(c3ccc(F)cc3)CC2)C1 (stereo not drawn)
 : 2 | 4
CC(C)(C)[C@H]1C[C@@H](NC(=O)c2ccccc2)C[C@@H](c2ccccc2O)O1
 : 0 | 0
O=C1CCCc2occ(C(=O)N3CCc4c([nH]c5ccccc45)C3c3ccccc3F)c21 (stereo not drawn)
 : 7&26 | 6&16
COC(=O)c1ccc(CSc2ncnc3c2nnn3-c2ccc(OC)cc2)o1
 : 7 | 15
COCc1cc(C)nc(OCC(=O)N/N=C\c2ccc(O)c(Br)c2)c1C#N
 : 2 | -5
O=C(CN(CCN1CCOCC1)C(=O)Nc1cccc(F)c1)N(Cc1ccc2c(c1)OCO2)Cc1ccco1
 : -3 | 1
COCCn1c(SC(C)C(=O)N2CCCc3ccccc32)nc2cc(Cl)ccc2c1=O (stereo not drawn)
 : 1 | 2
N#Cc1cc2cc(Cl)cc(Cl)c2oc1=O
 : 189* | 162*
CCOC(=O)C1CCN(C(=O)c2cccc(Nc3c(Oc4cccc(Cl)c4)cnn(-c4ccccc4)c3=O)c2)CC1
 : -5 | -2
c1ccc(CCNCCCOc2cccc3ccccc23)cc1
 : 22 | 13
CCc1n[n+]2c(C)cc(C)nc2s1
 : -11 | -18
O=C(CCCSc1nnc(-c2ccccc2Cl)n1-c1ccc(Cl)c(Cl)c1)N1CCN(c2cccc(C(F)(F)F)c2)CC1
 : 21 | 20
O=C(O)c1csc(S(=O)(=O)Nc2ccc3[nH]c(=O)sc3c2)c1
 : -5 | -8
CCc1nc(-c2nccn2CC2CC(=O)N(CC)C2)c(C)[nH]1 (stereo not drawn)
 : 8 | 0
CC(C)(C)Nc1nc(NN)nc(Nc2cccc([N+](=O)[O-])c2)n1
 : 2 | -9
O=C(COC(=O)C1CCC1)NC(=O)NC1CCCCC1
 : 1 | 1
O=C(CCc1ccccc1)N1CCCC(OCc2ccc(OC(F)(F)F)cc2)C1 (stereo not drawn)
 : 23 | 20
O=C(NCc1cccc(C(F)(F)F)c1)c1csc(CSc2nnc(Cc3ccccc3)n2-c2ccccc2)n1
 : -2 | 0
Cc1cnc(C(=O)N2CC(=O)N(CCc3ccccc3)CC(OCc3cccc(F)c3)C2)[nH]1 (stereo not drawn)
 : 21 | 8
Cn1cc(C(=O)NCCC2=CCCCC2)c2[nH]c(=O)n(-c3ccc(F)cc3)c(=O)c21
 : 4 | 2

# 5 successive entries out of the list so far, for reference:
# Below each compound: NPYLR7 agonist | NPYLR7 agonist max-min
CCC(C)NC(=O)CCN(Cc1ccccc1)c1nc(-c2cccc(Br)c2)nc2ccccc12 (stereo not drawn)
 : 11 | 11
CCOC(=O)N1CCN(C(=O)CSc2nnc(-c3ccc4c(c3)OCO4)n2-c2ccccc2)CC1
 : 1 | 22
Fc1ccc(-c2noc3nc(NC4CC4)ccc23)cc1
 : 4 | 1
COC(=O)[C@@H](C)NC(=O)[C@H]1CN(C(=O)Nc2ccccc2)CCN1S(=O)(=O)c1ccccc1
 : -7 | -13
CCOC(=O)C1=C(NC(=S)NC(=O)c2ccccc2)c2ccccc2CC1(C)C
 : -1 | -1
